Source: PubChem (Broad Institute)
ALR inh – human ALR oxidase inhibition via reduced H2O2. inhibition, % (no concentration beside the values). P55789. actives 3.8% (n = 290,000). AID 485317. purified ALR, DTT oxidation, H2O2 HRP-luminol luminescence;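 active = mean and each replicate at 75% or more; inconclusive = only one of the two met; inactive = neither met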;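 also: stock transfer was 7.5 nL into about 7.5 µL; 0% = neutral wells and 100% = wells with inactivated enzyme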
Target sequence (P55789 whole entry, looked up): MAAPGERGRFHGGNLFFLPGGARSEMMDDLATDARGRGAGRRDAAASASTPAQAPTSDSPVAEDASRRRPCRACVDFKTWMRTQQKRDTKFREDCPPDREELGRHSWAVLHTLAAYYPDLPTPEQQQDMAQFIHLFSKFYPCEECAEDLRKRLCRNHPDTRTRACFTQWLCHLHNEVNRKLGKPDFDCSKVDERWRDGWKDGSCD
AF4-AF9 inh – blocks AF4 peptide binding to human AF9 | inhibition, % at 10 µM | P42568 | AlphaScreen, biotin-AF4 peptide binding to FLAG-AF9 | AID 651704 | actives 0.47% (n = 350,000);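 active = every replicate reaching a set inhibition limit, whatever the replicate mean, cut at about 25% in these data; inconclusive = mean inhibition reaches that limit but some replicates miss it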;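 also: 0% = plate neutral control median and 100% = total signal loss; the record names both 10 and 1 µM as test concentration; the first replicate is given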
Target sequence (P42568 whole entry, looked up): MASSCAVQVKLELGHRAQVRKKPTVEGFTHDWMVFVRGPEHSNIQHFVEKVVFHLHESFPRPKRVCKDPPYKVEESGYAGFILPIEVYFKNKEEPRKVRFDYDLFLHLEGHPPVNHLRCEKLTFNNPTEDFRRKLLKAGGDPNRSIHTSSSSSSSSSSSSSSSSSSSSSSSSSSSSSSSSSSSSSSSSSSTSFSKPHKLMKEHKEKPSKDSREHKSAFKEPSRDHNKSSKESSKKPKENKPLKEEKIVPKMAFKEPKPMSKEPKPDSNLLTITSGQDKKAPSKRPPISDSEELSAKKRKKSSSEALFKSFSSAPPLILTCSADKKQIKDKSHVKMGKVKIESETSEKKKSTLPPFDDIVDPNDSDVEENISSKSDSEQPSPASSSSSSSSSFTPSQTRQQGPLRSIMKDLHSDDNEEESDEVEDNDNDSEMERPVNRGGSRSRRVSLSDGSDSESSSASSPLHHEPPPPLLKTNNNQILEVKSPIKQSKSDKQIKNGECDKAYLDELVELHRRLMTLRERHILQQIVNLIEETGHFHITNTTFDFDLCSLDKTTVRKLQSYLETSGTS
RanGTP-Imp inh – inhibitors of RanGTP-importin-beta interaction, primary screen, biochemical, FRET, CFP-Ran, YFP-importin-beta, homogeneous; cell-free CFP-Ran/YFP-importin-beta FRET ratio; inhibition, % (concentration not given with the values); actives 1.1% (n = 300,000); AID 2216;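 active = most replicates above 15%; inconclusive = exactly half above 15%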;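 also: 0% = DMSO wells and 100% = Ran loaded with GDP instead of GTP; wells of about 40 µL received 100 nL stock; the first replicate is given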
Beta cell apopt – blocks beta cell apoptosis; INS-1E cytokine-induced death, ATP luminescence, 48 h; percent of positive-control rescue, neutral wells zero; protection from apoptosis, % (test concentration not listed); actives 0.8% (n = 300,000); AID 435005;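 active = all replicates at 75% or more, or half of them and the mean; inconclusive = half reach 75% but not the mean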;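 also: 0% = cytokine-treated negative control wells and 100% = positive control rescue; higher means more ATP so stronger rescue from cytokine killing; wells of about 40 µL received 100 nL stock; the first replicate is given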
FGF22 binding – binders of recombinant human FGF22 by thermal shift; Q9HCT0; SYPRO orange fluorescence; percent of sucrose octasulfate shift, DMSO zero; calls only at 9.99 µM; actives 1.5% (n = 340,000); AID 651658;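 active = melting point raised past a set limit in the mean and every replicate; inconclusive = no clear call; three in four hits are not shown here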
Target sequence (Q9HCT0 whole entry, looked up): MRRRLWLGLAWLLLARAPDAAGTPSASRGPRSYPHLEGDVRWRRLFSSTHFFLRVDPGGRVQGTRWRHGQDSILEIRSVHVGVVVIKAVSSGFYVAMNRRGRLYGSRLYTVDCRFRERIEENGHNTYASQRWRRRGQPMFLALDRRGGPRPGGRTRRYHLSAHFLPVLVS
T cruzi inh – T. cruzi replication inhibition; T. cruzi beta-gal in NIH3T3, luminescence, 90 h; inhibition, % (test concentration not listed); actives 1.4% (n = 300,000); AID 1885;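 active = mean inhibition across valid replicates above about 55%, limit read from the data; inconclusive = mean below that limit but half or more replicates reach it; inactive = mean below it, under half of replicates reach it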;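 also: signal also drops with host cell toxicity which is not excluded here; 0% = plate median of DMSO wells and 100% = zero luminescence signal; higher percent means less beta-gal luminescence so fewer parasites; stock transfer was 50 nL into about 50 µL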
Calb FLC – affects C. albicans growth with fluconazole | growth inhibition, % (concentration not given with the values) | C. albicans CaCi-2 (fluconazole-resistant clinical isolate) + fluconazole, Alamar Blue growth, 48 h | actives 0.57% (n = 300,000);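 active = most replicates above 75%; inconclusive = exactly half above 75%; inactive = most below 75%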;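 also: all wells also contain fluconazole at 8 µg/ml as a sub-toxic cotreatment; 0% = median of DMSO wells and 100% = median of geldanamycin control wells; wells of about 8 µL received 7.5 nL stock; the first replicate is given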
Ecoli rRNA inh – selective bacterial rRNA inhibition in E. coli; actives 1.6% (n = 350,000); GFP signal change (wild-type ribosome), % (concentration not given with the values); E. coli WT GFP vs humanized-ribosome RFP mutants, fluorescence, 24 h; active compounds read low; DMSO median 0, no signal -100;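 active = significant combined selectivity score with lowered wild-type GFP, culture density cut under 30%, mutant RFP and density less affected; inactive = any of these conditions unmet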; also: one replicate is shown; some compounds called inactive have numbers as strong as hits
Ecoli rRNA inh OD600 – second read-out of Ecoli rRNA inh, no call of its own (marks repeat the call); OD600 change, %; measured here: OD600 growth;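 optical density of the mix in the first replicate; 0 = DMSO median and -100 = no signal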
Ecoli rRNA inh RFP – recorded beside Ecoli rRNA inh, whose call it bears; RFP signal change, %; measured here: RFP humanized mutant strains;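 first replicate; 0 = DMSO median and -100 = no signal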
Starred values were filed as active, the others as inactive; i = inactive; u = inconclusive; x = not tested or not shown; & = joins results of further samples. The list is partial; count on the stated rates, not on these rows.

Sample of the layout:
SMILES	ALR inh	AF4-AF9 inh	RanGTP-Imp inh	Beta cell apopt	FGF22 binding	T cruzi inh	Calb FLC	Ecoli rRNA inh	Ecoli rRNA inh OD600	Ecoli rRNA inh RFP
Cc1ccc(NC(=O)COC(=O)Cc2csc(-c3ccc(Cl)cc3)n2)cc1C	13	0.1	x	-3	i	x	x	4	10	2.5
CC1CC(N(C(=O)c2ccc(Cl)cc2)c2ccccc2)c2ccccc2N1C(=O)c1ccco1 (stereo not drawn)	x	x	-2.1	16	x	44	4	x	x	x

The whole of this part, previewed entries included:
SMILES	ALR inh	AF4-AF9 inh	RanGTP-Imp inh	Beta cell apopt	FGF22 binding	T cruzi inh	Calb FLC	Ecoli rRNA inh	Ecoli rRNA inh OD600	Ecoli rRNA inh RFP
Cc1ccc(NC(=O)COC(=O)Cc2csc(-c3ccc(Cl)cc3)n2)cc1C	13	0.1	x	-3	i	x	x	4	10	2.5
CC1CC(N(C(=O)c2ccc(Cl)cc2)c2ccccc2)c2ccccc2N1C(=O)c1ccco1 (stereo not drawn)	x	x	-2.1	16	x	44	4	x	x	x
COc1ccc(C)cc1S(=O)(=O)Nc1cc2c3c(c1)CCC(=O)N3CCC2	x	1.1	-0.2	12	i	-2	-4	-2	-10	0.5
Cc1nn(C)c(C)c1S(=O)(=O)NC1CCCc2ccccc21 (stereo not drawn)	0	x	-2.1	1	x	-6	5	x	x	x
Cc1cc(N2CC(C)OC(C)C2)n2cc(-c3ccccc3)nc2n1 (stereo not drawn)	-15	-1.1	3.6	6	i	1	8	9	-2	0.0
CN(CCc1ccccn1)Cc1ccc(Cl)cc1	-16	3.1	u	-4	i	56*	-3	18	9	-5.7
Cc1cc2ccccc2n2c(SCC(=O)NCC3CCCO3)nnc12 (stereo not drawn)	0	-2.6	-1.6	-2	i	-3	-6	-2	-1	2.2
O=C(COC(=O)C1=COCCO1)NCc1ccc(Cl)cc1	-2	-0.8	-0.4	-3	i	-14	4	12	-1	-1.8
O=C(O)c1cc(NS(=O)(=O)c2ccc(F)cc2)cc(NS(=O)(=O)c2ccc(F)cc2)c1	41	-0.1	x	-5	i	x	x	4	12	1.6
CC(=O)N1CCC(C(=O)NC2CCCc3c2cnn3-c2cc(F)cc(F)c2)CC1 (stereo not drawn)	1	-3.8	-14	2	i	-9	-3	1	4	-1.1
CCCn1nc(NS(=O)(=O)c2ccccc2)c2cc3cc(C)ccc3nc21	0	x	-1.5	-19	x	10	33	x	x	x
Cc1ccc2c(c1)C1CCCC3C1N2CC(=O)N3Cc1ccccc1 (stereo not drawn)	x	x	1.2	9	x	28	5	x	x	x
Cc1ccc(-c2nc(N/N=C/c3cccnc3)c3ccccc3n2)cc1	2	x	-0.7	76*	x	10	-9	x	x	x
O=C(CN1C(=O)C2CC=CCC2C1=O)NCC(=O)Nc1ccc(F)c(F)c1 (stereo not drawn)	-2	-12	5.6	-2	i	5	x	-1	3	2.0
Cc1ccc(N(C(=O)CC2NC(=O)NC2=O)C2(C(=O)NC3CCCC3)CCCCC2)cc1 (stereo not drawn)	-16	x	-1.6	-2	x	5	3	x	x	x
C[C@H](CO)N1C[C@H](C)[C@@H](CN(C)C(=O)Nc2ccc3c(c2)OCO3)Oc2ccc(NC(=O)Cc3ccccc3)cc2C1=O	-13	-2.3&-2.0	x	-2	i	x	x	1&6	-1&0	-3.1&2.6
CCOc1ccc(/C=C/C(=O)OC(C)C(=O)NC2CCCCC2C)cc1OC (stereo not drawn)	0	-2.9	2.2	-1	i	-1	-10	2	11	-0.6
COc1ccc(CNS(=O)(=O)c2c(C)[nH]c(C)c2C(=O)N2CCCC2)cc1	-7	-1.3	u	-3	i	-5	-7	16	9	-2.7
Cc1ccc(CNc2nc3ccccc3n3nnnc23)cc1	-2	x	u	-7	x	-8	4	x	x	x
COc1cccc(C(=O)N/N=C(\C)CC(=O)Nc2ccc(N(C)C)cc2)c1	60	-4.2	3.7	2	i	9	-12	5	8	3.6
CCOc1ccc(NC(=O)CC(=O)Nc2ccc(OCC)cc2)cc1	x	-1.9	u	-4	i	5	-5	3	5	-1.0
Cc1nc(/C=C/c2ccccc2)[nH]c(=O)c1-c1ccccc1	3	x	2.2	14	x	-4	u	x	x	x
CC(=O)N1CCOc2ccc(S(=O)(=O)N3CCN(c4cc(C)ccc4C)CC3)cc21	0	-1.7	-1.4	-6	i	1	21	-3	-12	-0.6
CCCOc1ccc(/C(O)=C2\C(=O)C(=O)N(c3ccccn3)C2c2ccccc2F)cc1C (stereo not drawn)	12	-1.4	-0.4	-11	i	-3	-1	-3	5	0.8
O=C(Nc1ccc(CN2CCOCC2)cc1)c1cc(Br)ccc1Cl	-7	2.9	-0.5	x	i	-11	0	-2	-2	-0.4
O=C(CSc1n[nH]c(=O)[nH]c1=O)c1ccc([N+](=O)[O-])cc1	x	8.4	-2.0	-2	i	3	8	7	7	0.0
CN1CCC(N(C)S(=O)(=O)c2ccc(Cl)cc2)CC1	-4	-7.1	u	x	i	12	5	13	25	5.2
CCOc1ccc(Br)cc1C(=O)N/N=C/c1cccnc1	-5	0.6	u	-4	i	1	-5	3	14	-1.0
O=C(Nc1cccnc1)c1cc(-c2ccc(Br)cc2)on1	3	-5.8	-0.2	0	i	-5	14	6	15	-1.1
COc1ccccc1NC(=O)CCN1C(=O)/C(=C/c2cc(OC)c(OC)c(OC)c2)SC1=S	3	-2.5	0.4	x	i	-9	-4	10	12	2.5
CCSc1ccc(C(=O)Nc2cccc(C)n2)cc1[N+](=O)[O-]	-1	x	3.0	-4	x	1	2	x	x	x
Cc1c(O)ccc(C(=O)COc2ccc(F)cc2)c1O	-2	x	0.8	1	x	-11	-7	x	x	x
O=C(Nc1sc2c(c1C(=O)O)CCC2)c1ccccc1	x	x	-1.6	7	x	3	50	x	x	x
CCN(CC)S(=O)(=O)c1ccc(C)c(NC(=O)CNCCN(C(C)C)C(C)C)c1	-3	-1.5	-3.2	-2	i	4	-21	13	0	-4.7
Cc1cc(CNC(=O)c2cccc([N+](=O)[O-])c2)c2ccccc2n1	51	0.5	-3.8	-1	i	9	20	3	1	-3.1
O=C(CCC(=O)Nc1nnc(C2CCCCC2)s1)NCc1ccccc1	x	-3.5	-2.0	0	i	-4	13	10	4	0.2
COc1ccc(OCCn2cc(/C(N)=N/O)c3ccccc32)cc1	x	-0.7	1.3	3	i	11	20	-28	-25	-2.4
Cc1cc(Cl)ccc1NC(=O)CN1C(=O)C(=O)N(C2CCCC2)C1=O	x	0.2	x	0	i	x	x	6	7	-5.3
CC1CCCCN1S(=O)(=O)c1csc(C(N)=O)c1 (stereo not drawn)	1	-0.9	u	-3	i	-5	-13	12	16	-0.8
CCOC(=O)CSc1n[nH]c(NC(C)=O)n1	-9	-0.5	-2.2	-4	x	8	-10	19	12	-0.4
CC(/C=N\NC(=O)CN1CCN(Cc2ccccc2)CC1)=C\c1ccco1	-30	4.7	-4.9	-11	i	-10	-3	20	16	3.4
COc1ccc(N=Cc2cc3c(cc2O)OC(N)=C(C#N)C3c2ccccc2)cc1 (stereo not drawn)	-7	5.4	9.5	-1	i	3	13	x	x	x
COc1ccc(/C=N/NC(=O)CCSc2nc3ccccc3s2)cc1	1	7.9	9.8	14	i	-4	8	-26*	-18*	-3.2*
COC(CNC(=O)c1cccc(-n2c(=S)[nH]c3cc(Cl)ccc3c2=O)c1)OC	67	-3.5	-2.6	-2	i	-13	10	7	0	0.1
CCOC(=O)c1c(C)n(C)c2cc(CN(C)C)c(O)c(S(=O)(=O)c3ccccc3)c12	2	-6.9	-82	x	x	9	-7	4	9	-0.2
CC1(C)OC2OC(C(=O)N/N=C/c3cc(Br)ccc3O)C3OC(C)(C)OC3C2O1 (stereo not drawn)	-2	-5.8	3.8	38	i	-2	29	-14	-1	1.4
CSc1ncccc1C(=O)Nc1nc2ccc(F)cc2s1	-3	-2.1	-1.2	9	i	11	-8	-18	-20	-3.2
CCCCCCCOc1ccc(C(=O)Nc2cccnc2)cc1	-1	-1.7	0.5	-12	i	2	1	-14	-13	-4.1
Cc1[nH]n(-c2ccccc2)c(=O)c1N=Nc1ccc(C(=O)O)cc1	-62	-22	-2.2	-6	i	12	4	3	15	-2.0
Cc1cc(C)c2nc(NNC(=O)c3ccc(S(=O)(=O)N4CCCCC4)cc3)sc2c1	6	12	6.3	71	i	50	4	-12*	-6.4*	1.8*
O=C1CC(c2ccco2)Sc2ccccc2N1 (stereo not drawn)	x	-2.9	2.0	x	i	-2	13	4	3	2.5
CCCCc1nc2cc(C(=O)N3CCNC(=O)C3CC(=O)OC)ccc2o1 (stereo not drawn)	-7	-0.6	0.7	-5	i	-16	-4	6	9	-2.9
CCOC(=O)c1c(C)c(C(=O)Nc2cc(OC)ccc2OC)c(C)n1CC	-2	x	-0.2	3	x	8	16	x	x	x
CCc1noc(C)c1C(=O)Nc1nc(-c2ccccc2)c(C(C)=O)s1	-3	1.5	x	6	i	x	x	-22	-43	-6.2
Cc1ccc(NS(=O)(=O)c2ccc(NC(=O)c3cccs3)cc2)cc1	-5	x	0.6	9	x	11	-14	x	x	x
O=C1CSC(=S)N1/N=C/C=C/c1ccccc1	5	0.8	-3.5	x	i	-5	-6	9	16	5.9
CC(C)N1CCN(S(=O)(=O)c2ccc3ccccc3c2)CC1	x	-8.5	4.4	x	i	5	0	-2	1	-0.7
Cc1ccc(S(=O)(=O)Oc2cccc(N3C(=O)C4CC=CCC4C3=O)c2)cc1 (stereo not drawn)	-23	x	-0.9	-7	x	-5	-2	x	x	x
COc1ccc(-n2c(=O)c3c4c(sc3n(CC(=O)NCc3ccco3)c2=O)CCC4)c(OC)c1	-17	x	1.3	-5	x	24	7	x	x	x

Compound profiles, as listed above.
`CCc1noc(C)c1C(=O)Nc1nc(-c2ccccc2)c(C(C)=O)s1` reads ALR inh: -3; AF4-AF9 inh: 1.5; RanGTP-Imp inh: x; Beta cell apopt: 6; FGF22 binding: i; T cruzi inh: x; Calb FLC: x; Ecoli rRNA inh: -22; Ecoli rRNA inh OD600: -43; Ecoli rRNA inh RFP: -6.2
`Cc1ccc(NS(=O)(=O)c2ccc(NC(=O)c3cccs3)cc2)cc1` reads ALR inh: -5; AF4-AF9 inh: x; RanGTP-Imp inh: 0.6; Beta cell apopt: 9; FGF22 binding: x; T cruzi inh: 11; Calb FLC: -14; Ecoli rRNA inh: x; Ecoli rRNA inh OD600: x; Ecoli rRNA inh RFP: x
`Cc1[nH]n(-c2ccccc2)c(=O)c1N=Nc1ccc(C(=O)O)cc1` reads ALR inh: -62; AF4-AF9 inh: -22; RanGTP-Imp inh: -2.2; Beta cell apopt: -6; FGF22 binding: i; T cruzi inh: 12; Calb FLC: 4; Ecoli rRNA inh: 3; Ecoli rRNA inh OD600: 15; Ecoli rRNA inh RFP: -2.0
